Screening data: PubChem, several laboratories
PABP polyA inh – PABP-poly(A) binding inhibition | PABP-poly(A) RNA binding, fluorescence polarization | P11940 | 290,000 compounds, 1% hits | AID 2014 | inhibition, % at 35 µM;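 active = 50% or more with normal probe brightness, or confirmed in later tests; about a fifth of its hits are not listed in these tables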;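 also: calls also rest on retests at 20 µM and on dose response follow-up; controls were probe without protein and protein plus probe with vehicle; some compounds called inactive have numbers as strong as hits; many hits fall short of the cut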
Target sequence (P11940 whole entry, looked up): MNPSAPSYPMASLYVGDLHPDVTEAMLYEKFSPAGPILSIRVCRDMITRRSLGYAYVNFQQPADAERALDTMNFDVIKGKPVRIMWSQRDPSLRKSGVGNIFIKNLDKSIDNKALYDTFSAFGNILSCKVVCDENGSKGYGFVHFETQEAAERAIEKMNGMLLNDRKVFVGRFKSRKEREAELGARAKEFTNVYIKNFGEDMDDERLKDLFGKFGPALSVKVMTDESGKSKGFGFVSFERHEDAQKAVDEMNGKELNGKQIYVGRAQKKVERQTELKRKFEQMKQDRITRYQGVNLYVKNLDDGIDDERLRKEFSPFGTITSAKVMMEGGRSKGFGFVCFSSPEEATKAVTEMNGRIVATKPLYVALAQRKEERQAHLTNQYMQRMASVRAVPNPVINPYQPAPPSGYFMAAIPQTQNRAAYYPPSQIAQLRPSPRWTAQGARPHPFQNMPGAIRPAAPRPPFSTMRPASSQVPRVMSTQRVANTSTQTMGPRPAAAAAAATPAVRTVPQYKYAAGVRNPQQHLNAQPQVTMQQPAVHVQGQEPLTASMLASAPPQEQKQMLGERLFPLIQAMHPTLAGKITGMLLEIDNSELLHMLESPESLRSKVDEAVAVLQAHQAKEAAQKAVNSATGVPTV
Env fusion inh – inhibitors of HIV Env-mediated cell fusion. HeLa-JRFL Env/CEM21 cell fusion, luciferase. inhibition, % at 12.3 µM. 360,000 compounds, 1.1% hits. AID 651610;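 active = mean replicate inhibition score of at least 50 and every replicate individually at or above 50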;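 also: 0% = plate neutral controls and 100% = maraviroc near 300 nM; one replicate is shown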
UUG fidelity – alters start codon recognition fidelity in yeast; S. cerevisiae UUG-firefly luciferase reporter, luminescence/redox ratio; activity score, % at 18.7 µM; 350,000 compounds, 0.13% hits;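 active = replicate mean at a twofold rise or more, about +100% in these data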;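 also: firefly luciferase made from a UUG start codon reports start codon fidelity; reporter light over untreated wells divided by growth signal over untreated wells; some hits fall short of that in this replicate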
MT1-MMP act inh – inhibitors of human MT1-MMP activation; HT1080 RFP-PRO-GFP cells, GFP/RFP ratio fluorescence, overnight; percent of plate control window, DMSO zero; GFP/RFP ratio change, % at 20 µM; 360,000 compounds, 0.061% hits;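 active = GFP/RFP ratio change of at least 30% with cell ATP level not reduced by more than half and red fluorescence within 50% of control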; also: strong numbers were not always called active
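Material: RFP-PRO-GFP reporter HT1080 cells. Dosing: single-point 20 µM compound, 1% DMSO. Controls: DMSO and RFP-L50D-GFP cell wells. Timing: cells overnight before dosing, compound overnight, 37 °C, 5% CO2. Measure: GFP/RFP fluorescence ratio.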
eIF4H inh – inhibitors of RNA binding by human eIF4H; inhibition, % at 35 µM; Q15056; 290,000 compounds, 0.94% hits; eIF4H fluorescence polarization binding assay; AID 2012;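 active = 50% or more with normal probe brightness, or confirmed in later tests; about a fifth of its hits are not listed in these tables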;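 also: calls also rest on retests at 20 µM and on dose response follow-up; 0% = protein and probe with vehicle and 100% = probe without protein; strong numbers were not always called active; many hits fall short of the cut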
CSC inhib – cancer stem cell inhibition | 300,000 compounds, 1.1% hits | cancer stem cell-like cells viability, luminescence | inhibition, % at 7.5 µM | AID 2717;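 active = mean at 75% or more and at least half the replicates too; tested in HMLE shEcad cells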;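 also: 0% = median of negative and 100% = median of positive control wells; the first replicate is given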
Rce1 inhib – inhibitors of yeast Ras-converting enzyme; Q03530; AID 2563; calls only; yeast membranes, quenched prenylated peptide cleavage fluorescence; 290,000 compounds, 0.27% hits;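 active = fall in fluorescence gain of 50% or more versus controls, with final raw signal at or below 3038400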;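 also: plate controls were neutral control wells for no effect and wells lacking membranes for full effect; tested at 10 µM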
eIF4H inh retest – recorded beside eIF4H inh, whose call it bears; inhibition, %; compound at 20 µM; confirmation average;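 mean of two retest wells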
PABP polyA inh retest – also measured in PABP polyA inh; calls as there; inhibition, %; compound at 20 µM; confirmation repeats;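 mean of two retest wells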
MT1-MMP act inh RFP – also measured in MT1-MMP act inh; calls as there; RFP signal change, %; measured here: RFP expression control read;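 0 = vehicle wells; hits needed this value within 50% of zero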
The depositor's hits bear a star; i = inactive; / = no result given.

SMILES	PABP polyA inh	Env fusion inh	UUG fidelity	MT1-MMP act inh	MT1-MMP act inh RFP	eIF4H inh	CSC inhib	Rce1 inhib	others
COc1ccc2c(c1OC)C(=O)N1N=C(c3ccc(F)cc3)CC21 (stereo unspecified)	-8	24	/	/	/	-2	-13	i
O=C(CSc1nnc(CNC(=O)c2ccccc2F)o1)Nc1ccc2c(c1)OCO2	-8	5	-7	-1	2	5	-2	i
Cc1onc(-c2c(F)cccc2Cl)c1C(=O)N1CCOC12CCCCC2	2	-5	/	1	3	-2	-17	i
COc1cccc(OC)c1C(=O)N1CCN(Cc2c[nH]c3ccccc23)CC1	/	34	-12	-2	1	/	/	/
CCOc1ccc(CCN2C(=O)C(=O)N([C@@H](CC(C)C)CN3CCC[C@@H]3CN3C(=O)C(=O)NC[C@@H]3Cc3ccccc3)C[C@@H]2Cc2ccc(O)cc2)cc1	/	24	2	-5	-2	/	/	/
O=C(CSc1cn(CC(=O)N2CCCCCC2)c2ccccc12)NCC1CCCO1 (stereo unspecified)	4	1	/	-1	1	17	2	i
CCC(C)NC(=O)Cn1cc(S(=O)(=O)N2CCCC2)c(S(=O)(=O)N2CCCC2)c1 (stereo unspecified)	11	8	-8	1	3	14	-3	i
COc1c(C)cc(C(O)c2ncc(-c3ccccc3F)[nH]2)cc1C (stereo unspecified)	/	1	-10	0	-2	/	/	/
O=C(Nc1cccc([N+](=O)[O-])c1)N1CCCc2ccccc21	-6	-12	-15	-5	0	-6	-3	i
O=C(NCC1CCCN1S(=O)(=O)c1cccs1)C(=O)Nc1ccccc1Cl (stereo unspecified)	/	-83	-6	3	-3	/	-1	i
CCOC(=O)c1c(C)[nH]c(-c2csc(C)n2)c1C	-4	-18	/	-1	-2	0	3	i
O=C(CNC(=S)N(Cc1ccccc1)Cc1ccccc1F)NCCc1ccccc1	-6	28	-11	-7	-14	2	-1	i
Cc1cc(N/N=C/c2ccccc2)nc(N)n1	8	-12	-7	0	-3	2	-9	i
CCc1ccc2c(c1)C(c1ccc(N3CCOCC3)cc1)=NNC(c1ccncc1)=N2	9	17	/	-13	-12	-9	-18	i
CN1CCc2c(sc3nc(NN)n(Cc4ccccc4)c(=O)c23)C1	-6	7	-17	-3	0	6	-6	i
O=C(Cc1ccccc1)Nc1nnc(-c2ccco2)s1	30*	/	-23	6	5	64	-3	/	eIF4H inh retest=43;PABP polyA inh retest=53*
COc1ccc(NC(=S)NCC2CCN(c3ccc(OC)cc3)C2)cc1 (stereo unspecified)	-12	0	/	3	4	-3	-14	i
COc1ccc(S(=O)(=O)N2CCOCC2)cc1NC(=O)c1ccccc1-c1ccc(C(F)(F)F)cc1	-1	/	-22	-3	-5	12	8	i
O=C(CSc1nc2ccccc2c(=O)n1Cc1ccco1)N1CCN(c2ccccc2)CC1	-5	i	-9	6	6	-5	-8	i
CC1(C)CC(O)CC(C)(C)N1CC(O)COCc1ccccc1 (stereo unspecified)	/	-19	-1	0	-2	/	2	i
Cc1ccc(C)c(N2CCN(C(=O)c3nn(C)c4c3CS(=O)(=O)c3ccccc3-4)CC2)c1	-8	8	2	3	-4	-15	-2	i
CN(C)/C=N/c1ncn(-c2ncc(C(F)(F)F)cc2Cl)n1	-5	-13	/	1	-1	-11	10	i
Nc1nc2ccc(Cc3ccncc3)cc2s1	24	-13	-24	-4	-5	23	2	i
O=C(CCc1ccccc1)Nc1cccnc1Cl	1	-14	-1	-1	-1	-11	-6	i
Cc1cc(Cl)c(S(=O)(=O)Nc2cccc(O)c2)cc1OCC(N)=O	-5	2	/	4	3	-3	-8	i
CCn1c(=O)c(C(=O)NCCCO)c(O)c2ccccc21	2	/	/	9	4	-2	5	i
CCCN(Cc1nnc(-c2ccccc2Cl)o1)C(=O)c1cc2ccccc2o1	/	-261	6	0	-3	/	-13	i
O=C(Nc1ccc([N+](=O)[O-])cc1Br)c1cc2ccccc2nc1Cl	3	-23	-10	-2	-4	2	-7	i
COc1cc(NC(=O)Cn2nc(C(F)(F)F)c(Br)c2C)cc([N+](=O)[O-])c1	-3	19	1	4	-8	4	30	i
COc1ccc(-c2cc(C(=O)NC3CCCC3)c3ccccc3n2)cc1OC	/	18	-16	-1	0	/	/	i
Cc1cc(C(=O)Nc2ccc(N3CCOCC3)c3nonc23)ccc1[N+](=O)[O-]	2	-6	-3	6	-4	-7	/	i
CCOC(=O)c1cnc2c(OC)cccc2c1N1CCN(c2ccccc2OC)CC1	3	-130	-5	7	0	1	5	i
CCOC(=O)N1CCC(NC(=O)c2cc(S(=O)(=O)NCCc3ccccc3)ccc2F)CC1	-7	33	/	-6	-14	2	/	i
CCOC(=O)c1c(N)sc(C(=O)OCCOC)c1C	-8	-21	/	2	-4	-8	-4	i
COc1ccc2c(CCNC(=O)CN3C(=O)c4ccccc4C3=O)c[nH]c2c1	-7	-4	/	-1	-1	-18	-12	i
CC(C)N(C)Cc1nnnn1CC(=O)N(C)Cc1cccc(Cl)c1	-12	-3	-12	-1	0	-1	-6	i
CC(=O)c1cccc(NC(=O)N2C3CCC2CC(O)(c2cccnc2)C3)c1 (stereo unspecified)	7	/	-6	-7	-9	-14	-1	i
Cc1[nH]c2ccccc2c1C1C(c2ccccc2)=NN=C(C(C)C)N1O (stereo unspecified)	-4	-133	-8	-5	-1	2	5	/
CC1(C)Cc2c(C#N)c(SCc3ccccc3)nc(N3CCOCC3)c2CO1	1	/	-3	0	-8	-11	-2	i
COc1ccccc1CN1CC(C(=O)NCCN2CCNC2=O)CCC1=O (stereo unspecified)	-2	-2	-10	3	4	-10	-9	i
O=C(O)c1cccc(S(=O)(=O)N2CCc3ccccc3C2)c1	6	0	-4	3	1	11	0	i
COc1ccccc1NC(=O)Cn1c(=O)oc2ccccc21	-1	/	16	-1	0	-5	2	i
Cc1ccc(N=Nc2ccc(N)cc2C)c(S(N)(=O)=O)c1	11	-28	-8	4	1	13	6	i
CCCSc1cc(N)cc([N+](=O)[O-])c1	-9	-220	/	0	2	-2	/	i
COc1ncnc2c1ncn2CCCNc1ccc(C)c(C)c1	/	8	-16	1	-1	/	/	/
O=C(O)c1cc([N+](=O)[O-])ccc1-c1ccc([N+](=O)[O-])cc1C(=O)O	/	-16	13	-1	4	/	/	/
Cc1ccc(-c2csc(NC(=O)C3=COCCO3)n2)cc1	7	-29	/	3	1	11	4	i
COc1cc(NC(=O)CN2C(=O)NC(c3ccccc3)(c3ccccc3)C2=O)c(C)cc1[N+](=O)[O-]	31	-48	/	-5	-7	-3	-4	i
CCOC(=O)c1c(NC(=O)C2CCCO2)sc(C(N)=O)c1C (stereo unspecified)	3	-21	-14	1	-1	-3	14	i
CC(=NCCc1ccccc1)C1=C(O)CCC1=O	-5	-8	/	3	6	-4	5	i
CC(C)CCc1c(O)nc(SCC(=O)N2CCCCCC2)[nH]c1=O	2	4	-4	-2	3	-2	/	i
COc1ccc(NS(=O)(=O)c2ccc(C)c(NC(=O)NC3CCCCC3)c2)cc1	43	/	/	1	-5	-6	-7	i
CC1=CC(C)(C)N2C(=O)C3(NCCc4c3[nH]c3ccccc43)c3cccc1c32 (stereo unspecified)	-14	-64	9	-3	-4	9	6	i
CC(=O)Nc1cccc(C(=O)NC2CCCc3c2cnn3-c2cc(C)cc(C)c2)c1 (stereo unspecified)	16	-32	9	1	-3	-12	-4	i
CC(C)(C)c1cc(NS(=O)(=O)c2ccc3c(c2)OCCO3)on1	-3	-28	-8	7	-9	-4	-1	/
CCC(NC(=O)c1ccccc1NC(=O)c1ccccc1)C(=O)O (stereo unspecified)	15	-17	-4	3	-1	20	2	i
CCn1ccc(C(=O)NC2=C(C#N)CCC2)n1	-1	-68	-7	3	7	4	-11	i
O=C(OCc1cc(=O)n2c(n1)sc1ccccc12)c1cccc(O)c1	-19	-42	-12	1	5	81	-2	i	eIF4H inh retest=-3;PABP polyA inh retest=17
c1ccc(-c2nnc3sc(Cc4cccs4)nn23)cc1	1	-32	-30	-6	0	6	-5	i
COc1ccc(-c2nc3c(C)cc(Br)cn3c2Cc2cccc(Cl)c2)cc1OC	/	-15	12	-3	-8	/	/	/

Later entries:
SMILES	PABP polyA inh	Env fusion inh	UUG fidelity	MT1-MMP act inh	MT1-MMP act inh RFP	eIF4H inh	CSC inhib	Rce1 inhib	others
COC(=O)CN1C(=O)[C@@H]2[C@H](C1=O)[C@@H]1CC(C(=O)OC)=C[C@@H](C(=O)OC)[C@@H]3C1=C(C(=O)[C@@]3(C)NC(=O)c1ccccc1)[C@@H]2C	/	12	9	-10	4	/	/	i
CCCS(=O)(=O)NC(=O)C1(C)CCCN(C(=O)c2cccc(Cl)c2)C1 (stereo unspecified)	/	10	-11	-3	7	/	/	/
CC(C)(C)NC(=O)C1Cc2ccccc2CN1 (stereo unspecified)	22	-1	-4	0	4	0	-9	i
CCOC(=O)N1CCN(C(=O)c2cc(COc3cccc(C(F)(F)F)c3)on2)CC1	1	-7	-6	3	-2	0	-11	i
O=C(CSc1nccc(=O)[nH]1)Nc1cccc(S(=O)(=O)N2CCOCC2)c1	-15	-53	-12	4	0	6	-12	i
COc1ccc(CNC(=O)C(C)N(Cc2ccco2)C(=O)c2snc(C(N)=O)c2N)cc1 (stereo unspecified)	3	12	-10	1	-1	-6	-5	i
Cc1c(C(=O)NCc2ccccn2)oc2ccc(S(=O)(=O)N3CCOCC3)cc12	2	9	-18	2	-4	-6	-16	i
COc1ccc(/C=N/NC(=O)CCn2nc(C)cc2C)cc1	-1	-6	-9	2	6	-6	-9	i
O=[N+]([O-])c1cc(S(=O)(=O)Nc2ccccc2)ccc1-n1nnc2ccccc21	19	/	/	3	0	-2	8	i
Fc1ccc(C(CCCn2nnc(-c3cccnc3)n2)c2ccc(F)cc2)cc1	-4	32	/	0	-13	-8	52	i
COc1ccc(/C=N/n2c(-c3ccc(C)cc3)n[nH]c2=S)cc1OC	1	8	/	3	5	4	-7	i
CN(C)S(=O)(=O)c1ccc(C(=O)NCCS(=O)(=O)N2CCN(c3ccc(F)cc3)CC2)cc1	-4	2	-4	7	-4	2	-23	i
O=C(CNC(=O)c1ccc(Br)cc1)OCc1cc([N+](=O)[O-])cc2c1OCOC2	3	10	/	3	5	-1	-6	i
CN(c1ccc(C(=O)NCCSCc2ccc(Cl)cc2)cc1)S(=O)(=O)c1ccccc1	3	/	/	0	-9	2	4	i
Cc1cc(Nc2ccc(N(C)C)cc2)n2ncnc2n1	6	-11	-1	-3	-2	-7	-6	i
CCCOc1ccc(-c2c(C(=O)N/N=C/C3CC=CCC3)nnn2-c2nonc2N)cc1 (stereo unspecified)	-2	0	-5	-1	0	-19	1	i
O=C(Nc1ccccc1)C1C2CCC3C(CCC21)C3(Cl)Cl (stereo unspecified)	4	/	/	3	1	1	-2	i
Fc1ccccc1COc1ccc(Br)cc1CNCC1CCCO1 (stereo unspecified)	1	3	/	-1	0	0	0	i
